Source: PubChem
TRPML1 inh = human mucolipin-1 channel inhibition. Q9GZU1. actives 0.02% (n = 390,000). TRPML1-inducible cells, Ca2+ dye fluorescence, FDSS; hits give low values; inhibition of EC80 agonist-evoked calcium signal. activity change, negative = inhibition, % (concentration not given with the values); in the data active means activity change below about -50%; inconclusive means about -30% to -50%; inactive means above about -30%;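 note: stimulus is agonist 54-4 at its EC80 concentration; % is set by controls: 0 for no effect and ±100 for the full control effect; compound concentration not given in the record; the text of the record puts the active cut at -80%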
Target sequence (Q9GZU1 whole entry, looked up): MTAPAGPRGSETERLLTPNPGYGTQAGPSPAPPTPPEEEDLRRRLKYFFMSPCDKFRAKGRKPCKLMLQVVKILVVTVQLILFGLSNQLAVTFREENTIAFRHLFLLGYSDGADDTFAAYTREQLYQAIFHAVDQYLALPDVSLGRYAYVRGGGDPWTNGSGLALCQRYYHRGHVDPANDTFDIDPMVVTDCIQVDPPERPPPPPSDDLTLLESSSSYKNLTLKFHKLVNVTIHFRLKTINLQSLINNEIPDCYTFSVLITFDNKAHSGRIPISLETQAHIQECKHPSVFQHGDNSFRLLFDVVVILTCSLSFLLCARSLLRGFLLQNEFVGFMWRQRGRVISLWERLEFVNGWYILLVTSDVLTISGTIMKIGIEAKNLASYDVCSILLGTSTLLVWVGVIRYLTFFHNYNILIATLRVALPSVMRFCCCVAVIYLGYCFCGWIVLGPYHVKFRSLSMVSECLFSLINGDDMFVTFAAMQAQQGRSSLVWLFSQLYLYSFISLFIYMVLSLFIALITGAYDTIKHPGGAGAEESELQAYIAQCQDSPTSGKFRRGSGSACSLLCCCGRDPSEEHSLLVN
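TRPML1-DL cells, Tet-induced overnight (~16 h, 37 °C) at 1,500 cells/well, were loaded with Ca8 no-wash dye plus quencher for 45-90 min at room temperature. Compounds were pinned during FDSS kinetic reading; agonist 54-4 at EC80 (4 uM final) then added.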
TRPML1 ag = activates the human TRPML1 channel; TRPML1-expressing cells, Ca2+ dye fluorescence, FDSS; host cell line not named in the record; reference of the full effect not given here; actives 0.12% (n = 410,000); activation, % (concentration not given with the values); AID 624414; Q9GZU1; in the data active = activation above about 50%; inconclusive = about 30% to 50%; inactive = below about 30%; note: 0% is about no effect; the text of the record puts the active cut at 80%
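Kinetic FDSS Ca2+ read in Tet-induced TRPML1-DL cells (ABD Ca8 dye plus quencher, 45-90 min RT loading): baseline, then compound, then 110 s agonist window; EC80 agonist 54-4 at 4uM final added afterwards for a 110 s antagonist window.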
Six1-Eya2 blk = Six1/Eya2 interaction inhibition. Q15475+O00167. AID 651725. actives 0.56% (n = 360,000). activity change, % (test concentration not listed). AlphaScreen GST-Six1/His-Eya2 binding, biochemical; hits give low values; control for the full effect not named in the record; in the data active = activity change below about -65%; inconclusive = about -30% to -65%; inactive = above about -30%; note: % is set by controls: 0 for no effect and ±100 for the full control effect; compound concentration not given in the record
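GST-Six1 + His-Eya2 (5X stock: 250/500 nM); Tris pH 8.0, 300 mM NaCl, 0.05% BSA, 0.02% Tween 20; GSH donor/Ni acceptor beads; 1 h 37 °C dark; AlphaScreen readout.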
PINK1 modulator = changes PINK1 expression; PINK1 immunofluorescence, high-content cytometry, 24 h; Potency, µM (series often up to 76.6 µM), for the others: top-dose activation (PINK1 increase), hits mostly activators; actives 0.2% (n = 410,000); active = well fitted activation curve with a large enough effect; inconclusive = small, poorly fitted or top-dose-only effect; inactive = flat fitted curve, though single readings scatter; cell line not stated here;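 note: potency is the fitted concentration of half-maximal effect; % of control where 0% means no effect; nearly all actives have a fitted effect of over 65% in size; a mitochondrial uncoupler was the plate control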
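Stable cell line, 250 cells/well, 12 h attachment; compounds pinned at 5 concentrations, 24 h; CCCP control. Fixed with nuclear dye, primary antibodies 12 h at 10 degrees C, secondary plus cell stain; laser-scanning cytometer read.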
D2 agonist = activates the human D2 dopamine receptor | P14416 | DiscoveRx PathHunter D2 beta-arrestin, luminescence, 90 min; 100% = 57 uM dopamine signal | activation, % (concentration not given with the values) | actives 0.084% (n = 360,000) | AID 624465; in the data active = activation above about 40%; inconclusive = about 15% to 40%; inactive = below about 15%; note: compound concentration not given in the record; the text of the record calls up to 30% inactive
Target sequence (P14416 whole entry, looked up): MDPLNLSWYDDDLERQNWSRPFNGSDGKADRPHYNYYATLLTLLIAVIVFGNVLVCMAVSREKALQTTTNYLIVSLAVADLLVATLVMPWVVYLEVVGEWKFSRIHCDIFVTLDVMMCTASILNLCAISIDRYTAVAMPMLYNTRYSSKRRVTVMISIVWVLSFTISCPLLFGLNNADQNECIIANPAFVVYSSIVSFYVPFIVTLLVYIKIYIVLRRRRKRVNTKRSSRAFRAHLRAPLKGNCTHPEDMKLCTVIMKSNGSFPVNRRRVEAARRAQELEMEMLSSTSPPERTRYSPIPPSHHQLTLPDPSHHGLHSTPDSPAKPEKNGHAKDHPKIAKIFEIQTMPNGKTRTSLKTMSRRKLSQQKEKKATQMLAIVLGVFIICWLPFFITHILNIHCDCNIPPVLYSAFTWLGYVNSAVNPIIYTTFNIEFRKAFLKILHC
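Agonist mode: compounds alone added to overnight-plated D2 PathHunter cells for 90 min at 37 C, with 57 uM final dopamine (EC100) defining full response. Beta-arrestin recruitment detected by chemiluminescent reagent, read after 1 h at ambient temperature.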
D2 PAM = potentiates the human D2 dopamine receptor allosterically | P14416 | DiscoveRx D2 beta-arrestin cells, luminescence, 90 min; 100% = 57 uM dopamine signal | potentiation, % (no concentration beside the values) | actives 0.23% (n = 360,000) | AID 624464; active = potentiation of 50% or more; inconclusive = 30% to 50%; inactive = 30% or less;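 note: compound concentration not given in the record; tested on top of an EC20 dose of dopamine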
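PathHunter D2 cells, attached overnight at 37 deg C, received compound in DMSO plus dopamine at EC20 (50 nM final) for 90 min at 37 deg C. Beta-arrestin recruitment was read as luminescence after 1 h with detection reagent at ambient temperature.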
* marks the source's active call; other numbers are inactive results; ? = inconclusive; · = not tested or not shown; & = joins results of further samples; [ ] = another dose, or the depositor's remark.

compound	Six1-Eya2 blk	TRPML1 inh	PINK1 modulator	D2 PAM	TRPML1 ag	D2 agonist
O=C(O)CCNc1cc(N2CCN(C(=O)c3ccco3)CC2)c2noc3c2c1C(=O)c1ccccc1-3	-74*	-6	0.7%	12	-0.2	-1.5
CCn1c(=O)c(C(=O)CN2CC(C)OC(C)C2)c(N)n(Cc2ccccc2)c1=O (configuration not stated)	3	-11	-0.8%	-2	-1.0	-1.6
Cc1cc(C)cc(-n2c(-c3ccccc3)c(C)n3c4c(=O)n(C)c(=O)n(C)c4nc23)c1	·	4	2.3%	·	0.7	·
CN(C(=O)CCN1C(=O)S/C(=C\c2ccccc2)C1=O)C1CCS(=O)(=O)C1 (configuration not stated)	-2	-9	-1.5%	-3	1.3	-6.2
CCc1ccccc1NC(=O)CSc1ncn[nH]1	2	3	·	4	-0.1	0.1
CCOc1ccc(OCCC(=O)OCC(=O)NCc2ccccc2)cc1	0	5	-0.9%	-3	1.4	-2.8
CCOc1ccc(NC(=O)CSC(N)=O)cc1	3	-12	4.0%	0	-0.4	-6.5
Cn1c(SCC(=O)Nc2ccc(C(N)=O)cc2)nnc1-c1cccs1	0	37	0.1%	-8	-0.5	0.2
COc1ccc2[nH]c3ccccc3c2c1	-1	8	3.7%	-10	0.1	-0.2
O=C(CCCC1=NS(=O)(=O)c2ccccc2N1)OCc1ccc(Cl)cc1	1	16	-0.1%	-18	0.6	-2.4
CC(=O)Nc1cccc(NC(=O)CCCC(=O)O)c1	1	4	-2.2%	13	0.4	?
CN1N=C(C(=O)N=c2sc3ccccc3n2C)CCC1=O	6	-2	1.0%	2	-0.1	4.8
CCC(=O)NC(=S)Nc1ccc(Cl)cn1	-3	-30	0.2%	-6	-0.9	-5.9
CCC1(c2ccccc2)NC(=O)N(CC(=O)N(C)CC(=O)Nc2c(C)cccc2C)C1=O (configuration not stated)	8	-5	-0.6%	-18	0.4	0.1
CCOC(=O)/C(C#N)=C/Nc1ccsc1C(C)=O	3	4	3.5%	-2	-0.6	-3.8
CCOc1ccc(CCNC(=O)COC(=O)c2ccc(OC)c(OC)c2OC)cc1OCC	3	12	-0.6%	8	-0.7	1.3
CC(=O)Nc1ccc(C(=O)N2CCCC(c3cc(C(=O)NCc4cccnc4)no3)C2)cc1 (configuration not stated)	2	·	1.7%	-5	0.1	-7.2
CCc1ccc(-c2cc(C(=O)NCc3ccco3)c3ccccc3n2)s1	-6	1	-0.2%[38.3 µM]	-17	-0.2	-3.6
CN=c1scc(C)n1/N=C/c1ccc(O)cc1	-22	32	-0.3%	-18	3.6	-2.4
CCOC(=O)c1c(C)oc2c1c1c(c3ccccc32)OCN(Cc2ccccn2)C1	?	-5	-0.4%	6	-0.1	5.6
CC(=O)Nc1cncc(-c2ccc(CN(C)C)cc2)n1	0	·	0.2%	-6	0.2	-5.3
CCOc1ccc(CN(C)C(=O)c2cccnc2SC)cc1OC	4	18	0.5%	1	0.0	0.6
CCCOc1ccc(-c2c(C(=O)N/N=C/c3ccc(OCC)cc3)nnn2-c2nonc2N)cc1	5	12	2.3%	-1	-0.2	-3.5
CCN(CC(=O)Nc1ccc(C)c(F)c1)CC(=O)NC(C)C	6	14	-0.5%	-1	1.5	-3.7
Cc1cc(C)cc(NC(=O)COC(=O)CCn2c(C)csc2=O)c1	-6	-11	1.6%	1	-1.0	-2.5
O=S1(=O)N[C@@H](CC2=CCCCC2)C2CCCCC2O1 (some centres not stated)	-2	4	5.6%	-4	0.8	1.0
NC(N)=NS(=O)(=O)c1ccc(NC(=S)NC(=O)/C=C/c2ccco2)cc1	1	-10	?	-14	0.5	-0.8
COc1ccc(Br)cc1CN(C)CC(=O)NCc1ccc(F)cc1	1	2	0.0%	-12	0.2	-2.3
Cc1nc(N/N=C/c2ccccc2)nc(N(C)c2ccccc2)c1[N+](=O)[O-]	-2	14	11%	-13	0.2	-4.9
CC1CC(C)(C)NC(=S)N1CCCC(=O)Nc1ccc(F)cc1 (configuration not stated)	39	-25	-0.7%	-8	0.6	-3.9
COc1ccc(C)cc1S(=O)(=O)Nc1cc2c3c(c1)C(C)C(=O)N3CCC2 (configuration not stated)	-5	37	-1.4%	29	0.2	-2.9
COc1cnc(-c2ccccc2)c(-c2ccccc2)n1	14	-2	12%	-2	1.2	-1.5
CN(C)CCOCCOc1ccccc1-c1ccccc1	6	3	0.4%[38.3 µM]	-21	-0.5	1.2
O=C(Cc1ccccc1)Nc1cccc(-c2nnc(-c3ccco3)o2)c1	-15	10	0.9%	-8	0.8	-0.5
COc1ccc(NC(=O)c2cnc(SC)n2-c2ccc(F)cc2)c(OC)c1	-8	-7	1.6%	-10	-1.9	-4.8
CC(C)C(C(=O)NCC1CCCO1)N(Cc1ccco1)C(=O)CNS(=O)(=O)c1ccc(F)cc1 (configuration not stated)	-1	-9	0.0%	2	-1.0	-1.2
CN(C)C(CNC(=S)Nc1cccc(Cl)c1)c1cccnc1 (configuration not stated)	5	4	2.2%	-6	0.6	-6.5
CCOC(=O)c1ccccc1NC(=O)C1CC(=O)N(C2CCCC2)C1 (configuration not stated)	3	-18	2.2%	-2	0.2	-4.0
COc1ccc(Cc2c(-c3ccc(Cl)cc3)nc3cc(C)c(Br)c(C)n23)c(C)c1	-3	·	3.3%	·	-0.5	·
O=C(c1ccc2c(c1)OCO2)N1CCN=C1SCc1cccnc1	-5	26	0.6%	-8	0.4	-7.4
Cc1cccc2cc(C#N)c(NCCCNS(=O)(=O)c3ccc(Cl)cc3)nc12	32	7	25%	-15	-0.4	-5.0
CCOC(=O)c1ccccc1NC(=O)Cn1cnc2c1c(=O)n(C)c(=O)n2C	1	7	0.0%	-2	-1.4	-2.1
CC1(C)C2CCC1(C)C(NC1=NCCC1)C2 (configuration not stated)	0	-6	2.4%	-21	0.1	-2.2
CCNC(=O)C1CCCN(C(=O)c2ccc(N(C)C)cc2)CC1 (configuration not stated)	0	·	1.4%	-6	-0.7	-3.9
CC(C)Oc1cc(F)ccc1-c1cc(C(=O)Nc2ccccc2)[nH]n1	-1	·	3.0%	-13	-0.5	1.9
Cc1coc2c1c(C)cc1oc(=O)c(CC(=O)N[C@H](C(=O)O)C(C)C)c(C)c12	6	12	3.9%	0	0.2	-0.7
CCN(CC(=O)Nc1ccc2c(c1)OCCO2)C(=O)/C=C/c1cccc(OC)c1OC	1	41	5.4%	-10	0.7	-7.1
CC[C@]12c3[nH]c4cc(CCC(=O)N(C)C)ccc4c3CCN1C(=O)[C@@H](CC(=O)NC(C)(C)C)C[C@@H]2C(=O)N1CCN(C(=O)C2CC2)CC1	3	-8	-0.6%	·	-0.2	-0.5
O=C(Nc1ccccc1)c1cc2c(-c3ccccc3)nn(-c3ccccc3)c2s1	·	-12	1.3%	·	1.3	·
Cc1ccc(CNC(=O)c2nnn(CC(=O)Nc3cccc(C)c3C)c2N)cc1	2	1	7.0%	-5	-0.7	0.4

Carrying on:
compound	Six1-Eya2 blk	TRPML1 inh	PINK1 modulator	D2 PAM	TRPML1 ag	D2 agonist
CCC(=O)OCC(=O)N=c1sccn1Cc1ccc(C)cc1	-10	10	3.2%	-29	0.2	-0.1
CC(C)CC(=O)O/N=C1\C(=O)N(c2ccccc2)c2ccccc21	-2	-2	1.8%	?	-0.4	-1.9
CC(=O)n1cc([C@H]2C=C(C(=O)N3CCN(Cc4ccc5c(c4)OCO5)CC3)O[C@@H](OCc3ccc(CO)cc3)C2)c2ccccc21	?	10	0.8%	-20	-0.1	5.1
Fc1cccc(Cc2noc(CN3CCOCC3)n2)c1	5	-16	-0.2%	-11	-0.5	-4.2
COc1ccc(N(CC(=O)N2CCN(c3cccc(C)c3C)CC2)S(=O)(=O)c2c(C)noc2C)cc1	-10	10&-7	0.6%&1.7%	-7	-0.4&-0.6	2.5
C/C=C(\C)C(=O)NCCN1C2=NC[C@H](Cc3ccc(O)cc3)N2C[C@@H]1Cc1ccc(OC)cc1	-2	0	1.4%	-24	-0.6	-0.9
Cc1ccc(-c2nnc(NC(=O)CCS(=O)(=O)c3ccc(F)cc3)o2)c(C)c1	2	-19	0.2%	-22	1.3	-4.7
O=c1cc(O)nc(SC23CC4CC(CC(C4)C2)C3)[nH]1	1	-3	1.7%[38.3 µM]	3	0.5	2.7
COc1ccc2ccc(=O)oc2c1CC=C(C)C	0	·	2.5%&4.0%	-1	·	1.7
COc1ccccc1OCCNC(=O)c1ccccc1OCc1c(C)noc1C	0	-2	-0.8%	2	-0.3	-2.0
COc1ccc(-c2csc3nc(-c4cccnc4)nc(Cl)c23)cc1OC	-4	27	10%	7	2.5	12
COc1cccc(CNC(=O)CCC(=O)N2CC3CCCN3c3ccccc32)c1 (configuration not stated)	·	-3	-0.4%	·	2.4	·
CC(=O)Nc1cccc(NC(=O)COc2nncc3ccccc23)c1	2	-24	2.5%	-7	2.3	3.9
N/C(=N\NC(=O)c1sccc1OCc1ccc(Cl)cc1Cl)c1ccccn1	-13	0	-2.9%	-11	3.3	1.6
CCOc1ccc(C2c3cc(OC)c(OC)cc3CC(=O)N2c2ccc(OC)cc2)cc1 (configuration not stated)	-7	-11	13%[38.3 µM]	-1	1.8	1.9
O=c1cc(-c2ccccc2)[nH][nH]1	6	-11	-5.1%[38.3 µM]	-7	0.0	0.2
CCCCN(C)S(=O)(=O)c1ccc(C(=O)N(CCN(C)C)c2nc3ccc(C)cc3s2)cc1	-4	-17	0.7%	-18	-0.3	-6.4
CCOc1cccc2cc(-c3cn4c(n3)sc3cc(C)ccc34)c(=O)oc12	·	?	-1.2%	·	0.5	·
CC1=C(C(=O)Nc2ccc(Cl)cc2)C(c2ccccc2F)n2nc(SCc3cccc(Cl)c3)nc2N1 (configuration not stated)	·	-8	2.8%	·	0.1	·

Complete entries from above:
N/C(=N\NC(=O)c1sccc1OCc1ccc(Cl)cc1Cl)c1ccccn1 as listed: Six1-Eya2 blk = -13; TRPML1 inh = 0; PINK1 modulator = -2.9%; D2 PAM = -11; TRPML1 ag = 3.3; D2 agonist = 1.6
CCOc1ccc(C2c3cc(OC)c(OC)cc3CC(=O)N2c2ccc(OC)cc2)cc1 (configuration not stated) as listed: Six1-Eya2 blk = -7; TRPML1 inh = -11; PINK1 modulator = 13%[38.3 µM]; D2 PAM = -1; TRPML1 ag = 1.8; D2 agonist = 1.9

Molecules shown so far that have a cyano group:
compound	Six1-Eya2 blk	TRPML1 inh	PINK1 modulator	D2 PAM	TRPML1 ag	D2 agonist
CCOC(=O)/C(C#N)=C/Nc1ccsc1C(C)=O	3	4	3.5%	-2	-0.6	-3.8
Cc1cccc2cc(C#N)c(NCCCNS(=O)(=O)c3ccc(Cl)cc3)nc12	32	7	25%	-15	-0.4	-5.0

Six1-Eya2 blk: hit marks shown above.
Compound,Six1-Eya2 blk,TRPML1 inh,PINK1 modulator,D2 PAM,D2 agonist
O=C(O)CCNc1cc(N2CCN(C(=O)c3ccco3)CC2)c2noc3c2c1C(=O)c1ccccc1-3,-74*,-6,0.7%,12,-1.5
